Screening results as filed in PubChem BioAssay.
GLA inh pH 4.5 = inhibitors of human alpha-galactosidase A at pH 4.5. AID 1467. purified enzyme, 4-MU-alpha-Gal fluorescence, pH 4.5. P06280. activity change, negative = inhibition, % at 105 µM. 230,000 tested, under 10 active; inconclusive = small, poorly fitted or top-dose-only inhibition, or a rising curve; inactive = flat fitted curve, though single readings scatter; no compound was filed as active;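 further: 0% = full activity with enzyme and -100% = basal without enzyme; dose as in the result columns while the protocol names 77 µM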
miR-21 FLuc = raises the signal of a miR-21 reporter; Potency, µM (top dose mostly 38.3 µM), inactives show at the top dose reporter change, positive = more light; HeLa miR-21 FLuc reporter, luciferase, 48 h; 340,000 tested, under 10 active; AID 2288; active = well fitted rising curve with a large enough effect; inconclusive = small, poorly fitted or top-dose-only effect; inactive = no such curve, though single readings can be large or run the other way;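 further: % of control where 0% means no effect; miR-21 action dims this reporter so a rising signal means less miR-21 action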
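HeLa cells stably expressing CMV-driven firefly luciferase with a downstream miR-21 binding sequence, endogenously expressing miR-21, were treated with titrations (up to about 40uM final) for 48 hours at 37 degree Celsius. Luciferase luminescence was read after lysis.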
Rango dissoc inh = inhibition of RanGTP-driven Rango-importin beta dissociation; Potency, µM (series often up to 46.1 µM), for the others: top-dose activity change, negative = inhibition; 0.071% of 340,000 active; Biochemical FRET Rango-importin beta, RanGTP-induced dissociation; O95149+P62826; active means falling FRET ratio curve, often poorly fitted, with flat reads before Ran was added; inconclusive means other falling curves, or compound fluorescence or quenching; inactive means flat or rising ratio curve;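 further: potency means the concentration at half of the fitted maximal effect; % of control where 0% means no effect; nearly all actives have a fitted effect of over 45% in size; -100% = wells without RanGTP and RCC1; the record marks most hits as doubtful in a second field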
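Recombinant Rango FRET biosensor (EYFP–snurportin 1 IBB–cerulean CFP10) at 0.1 uM premixed with 0.25 uM importin beta in PBS, 1 mM DTT, 0.02% Tween-20, 0.1% BSA. Compound added 5 min; RanGTP-RCC1 (0.6 uM Ran, 2 mM GTP, 0.2 uM RCC1) then triggers release, read at 45 min.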
Rango complex inh = prevents formation of the Rango-importin beta complex. Q14974. Rango CFP/YFP FRET sensor + importin beta, 45 min. Potency, µM (doses to about 92.2 µM), inactives show at the top dose inhibition of complex formation. 0.031% of 340,000 active. AID 540263; active = rising FRET ratio curve, often small or poorly fitted; inconclusive = mostly compound fluorescence or quenching in the first reads; inactive = flat curves in all reads;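 further: potency means the concentration at half of the fitted maximal effect; 0% = DMSO wells and 100% = buffer wells lacking importin beta; nearly all actives have a fitted effect of over 15% in size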
Target sequence (Q14974 whole entry, looked up): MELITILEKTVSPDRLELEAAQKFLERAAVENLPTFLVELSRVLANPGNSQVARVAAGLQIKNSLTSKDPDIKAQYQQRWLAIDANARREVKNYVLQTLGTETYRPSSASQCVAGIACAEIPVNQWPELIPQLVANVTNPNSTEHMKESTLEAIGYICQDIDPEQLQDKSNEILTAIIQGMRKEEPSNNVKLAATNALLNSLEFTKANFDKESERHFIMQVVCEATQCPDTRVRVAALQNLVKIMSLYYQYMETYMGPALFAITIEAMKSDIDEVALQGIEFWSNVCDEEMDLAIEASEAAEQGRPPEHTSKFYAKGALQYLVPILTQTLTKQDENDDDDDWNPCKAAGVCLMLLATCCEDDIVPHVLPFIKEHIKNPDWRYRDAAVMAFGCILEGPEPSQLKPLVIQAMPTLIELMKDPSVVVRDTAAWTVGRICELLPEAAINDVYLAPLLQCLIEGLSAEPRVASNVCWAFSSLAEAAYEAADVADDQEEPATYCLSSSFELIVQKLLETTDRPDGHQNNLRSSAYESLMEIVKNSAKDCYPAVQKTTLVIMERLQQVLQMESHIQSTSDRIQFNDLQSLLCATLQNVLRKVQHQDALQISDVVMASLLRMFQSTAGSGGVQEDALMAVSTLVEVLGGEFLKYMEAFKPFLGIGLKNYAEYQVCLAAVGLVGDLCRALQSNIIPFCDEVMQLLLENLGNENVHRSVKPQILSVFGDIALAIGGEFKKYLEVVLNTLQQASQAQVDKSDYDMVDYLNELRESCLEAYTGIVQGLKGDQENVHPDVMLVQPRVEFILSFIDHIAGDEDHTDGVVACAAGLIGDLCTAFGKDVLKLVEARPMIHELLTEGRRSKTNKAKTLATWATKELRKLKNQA
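Inhibition scored from the CFP 486 nm/YFP 530 nm FRET ratio 45 min after adding 0.125 microM importin beta to 50 nM Rango biosensor preincubated 5 min with compound (room temperature, PBS with DTT, Tween-20, BSA). No-importin wells as positive control.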
* hit, by the source's call; ? = inconclusive; . = not tested or not shown.

Codes – A = GLA inh pH 4.5; B = miR-21 FLuc; C = Rango dissoc inh; D = Rango complex inh
> CN1CCc2c(sc(NC(=O)c3ccc(S(=O)(=O)N4CCCC4)cc3)c2C(N)=O)C1
  A: .; B: -6%; C: ?; D: ?

> CCOc1cc(Br)cc(/C=N/NC(=O)c2cccnc2)c1O
  A: .; B: 12%; C: 1%; D: ?

> O=C(NCCCN1CCCC1=O)C1CCN(S(=O)(=O)N2CCOCC2)CC1
  A: 6; B: 0%; C: 5%; D: -0.6%

> CC1CN(CCCOc2ccccc2-c2ccccc2)CC(C)O1 (stereo not given)
  A: -6; B: 7%; C: -2%; D: 4.9%

> Nc1nc(SCc2ccc(F)cc2)n[nH]1
  A: .; B: -12%; C: -2%; D: -1.4%

> Cn1c(N)c(C(=O)COC(=O)c2ccc(Cl)c(S(=O)(=O)N3CCCCC3)c2)c(=O)n(C)c1=O
  A: 21; B: -3%; C: 1%; D: 1.7%

> Cc1ccc(-c2noc(CSc3nnnn3C3CCCCC3)n2)cc1
  A: -7; B: -2%; C: -3%; D: -0.7%

> O=C(CSc1ccccc1F)NC1CCS(=O)(=O)C1 (stereo not given)
  A: 5; B: 0%; C: 21%; D: -1.5%

> COc1ccc(Cl)cc1-c1n[nH]c(=S)n1Cc1ccccc1
  A: .; B: 3%; C: 31%; D: 15%

> CCOC(=O)c1ccc(N=Cc2nc3ccccc3n2C)cc1
  A: -2; B: -10%; C: 0%; D: ?

> O/N=C(\c1ccccc1)c1nccc2ccccc12
  A: .; B: -1%; C: -6%; D: 2.3%

> Cc1nc2sc(C(c3cccc(F)c3)N3CCC(C)CC3)c(O)n2n1 (stereo not given)
  A: 0; B: -4%; C: -2%; D: 0.5%

> CCn1c(C)nc2cc(C(=O)N/N=C(\C)c3ccc(OC)cc3O)ccc21
  A: -5; B: 25%; C: ?; D: ?

> Nc1cccc(C(=O)Nc2ccccc2Cl)c1
  A: 1; B: -27%; C: -10%; D: -4.9%

> Cc1ccc(S(=O)(=O)CCC(=O)Nc2nnc(-c3ccccc3S(C)(=O)=O)o2)cc1
  A: .; B: .; C: -1%; D: -1.8%

> CN(CC(=O)Nc1cccc(F)c1)C(=O)C1CCC(C(=O)N(C)CC(=O)Nc2cccc(F)c2)CC1 (stereo not given)
  A: .; B: .; C: 12%; D: -0.6%

> COc1ccc(Cc2[nH]n3c(=O)cc(C(C)C)nc3c2-c2ccccc2)cc1
  A: -6; B: ?; C: 6%; D: 2.0%

> Cc1ccc2c(c1)N=C(c1ccc(Cl)cc1)CO2
  A: -2; B: -50%; C: -17%; D: 0.3%

> O=C(O)Cc1csc(-c2ccc(F)cc2)n1
  A: -2; B: -4%; C: 1%; D: 3.4%

> Cc1ccc(S(=O)(=O)N2CCN(C(=O)CSc3ncn[nH]3)CC2)c(C)c1
  A: .; B: .; C: -4%; D: -0.9%

> CCN(CC)CCNC(=O)Cc1c(C(=O)O)n(C)c2ccccc12
  A: -5; B: 1%; C: -14%; D: 2.6%

> O=C(NCc1ccc2c(c1)OCO2)c1cc([N+](=O)[O-])ccc1N1CCCCC1
  A: -9; B: 25%; C: 13%; D: 6.1%

> COc1cccc(C2[C@H](C)C3(CCN2C)OCCO3)c1 (stereo not given in full)
  A: -2; B: 0%; C: -2%; D: -1.0%

> O=C(COC(=O)c1cccc(OC(F)F)c1)NC(=O)NC1CCCCC1
  A: .; B: .; C: 16%; D: 0.5%

> CCOc1ccc(NC(=O)C2CCCN(S(=O)(=O)c3ccc(-n4cnnn4)cc3)C2)cc1 (stereo not given)
  A: .; B: -13%; C: -12%; D: 3.5%

> CCC(=O)Nc1ccc(S(=O)(=O)Nc2c(NC)c3ccccc3oc2=O)cc1
  A: .; B: 8%; C: 15%; D: 4.5%

> C[C@H]1CN([C@@H](C)CO)C(=O)Cc2cc(NC(=O)CCC(F)(F)F)ccc2O[C@H]1CN(C)CC1CC1
  A: .; B: .; C: 8%; D: 1.3%

> c1ccc2c(c1)SCc1nnc(-c3ccncc3)n1-2
  A: 7; B: 1%; C: 6%; D: ?

> COCCN(C(=O)CSc1nnc(-c2ccc(C(C)(C)C)cc2)n1N)c1c(N)n(CC(C)C)c(=O)[nH]c1=O
  A: .; B: .; C: -1%; D: 0.4%

> COC(=O)c1ccc(Cn2nnc3c(=O)[nH]c(C4CCN(S(=O)(=O)c5ccc(F)cc5)CC4)nc32)cc1
  A: .; B: 6%; C: ?; D: -0.8%

> Cc1ccc2c(c1)-c1c(cnn1CC(=O)N(Cc1ccco1)C1CCCCC1)CO2
  A: 0; B: 5%; C: 13%; D: -0.4%

> CC(C)(C)c1cc(N/C=C\c2nnnn2-c2ccc(Br)cc2)no1
  A: -4; B: -4%; C: 1%; D: -1.1%

> O=C(COc1ccc(F)cc1)Nc1ccc(-n2cnnn2)cc1
  A: 4; B: -8%; C: -1%; D: ?

> Cc1ccc(Cl)c(OCC(=O)Nc2cc(S(=O)(=O)N3CCOCC3)ccc2N2CCCC2)c1
  A: .; B: 1%; C: 5%; D: -3.2%

> N/C(=N\OC(=O)c1ccccc1F)c1cccc([N+](=O)[O-])c1
  A: .; B: -55%; C: 14%; D: 1.6%

> Cc1cccc(NC(=O)C2CCCN(S(=O)(=O)c3cccc4nsnc34)C2)n1 (stereo not given)
  A: -6; B: 1%; C: -7%; D: -0.3%

> CC(C)n1c(CN2CCN(Cc3ccccc3)CC2)nc2ccccc21
  A: -6; B: -1%; C: 2%; D: -0.4%

> CC(=O)COc1ccc(-c2csnn2)cc1
  A: -2; B: -41%; C: 11%; D: -1.9%

> CC(=O)N(C)c1ccc(OCC(O)COc2ccc(N(C)C(C)=O)cc2)cc1
  A: 0; B: -1%; C: 3%; D: -0.2%

> CC(C)CSc1oc(-c2ccco2)nc1S(=O)(=O)c1ccccc1
  A: -17; B: -4%; C: -3%; D: 0.0%

> Cn1c(=O)c2cc(S(=O)(=O)NC(C(=O)Nc3cccnc3)c3ccccc3)ccc2n(C)c1=O (stereo not given)
  A: -1; B: 1%; C: -5%; D: -0.8%

> O=C(Cn1c(=O)sc2ccccc21)Nc1ccc(O)cc1
  A: 3; B: -10%; C: -10%; D: -2.2%

> COc1ccc(C(C)=O)cc1Cn1cnc2c(cnn2C)c1=O
  A: -16; B: -7%; C: -5%; D: 0.3%

> CCN1CCN(S(=O)(=O)c2cccs2)CC1
  A: 8; B: -2%; C: -7%; D: 0.6%

> CCOc1ccccc1OCC(=O)Nc1nnc(C)s1
  A: 0; B: -10%; C: -9%; D: -1.5%

> Cc1cc(OCC(=O)NCCN2CCOCC2)c2c(C)c(C)c(=O)oc2c1
  A: .; B: 0%; C: 14%; D: 1.1%

> O=C(c1cccc(S(=O)(=O)N2CCN(c3ccccc3)CC2)c1)N1CCCCCCC1
  A: .; B: .; C: -10%; D: -0.5%

> CCCCOc1ccc(N(CC(=O)NC(C)(C)C)C(=O)CCC(=O)Nc2nccs2)cc1
  A: .; B: 16%; C: 0%; D: -2.1%

> Cc1ccc(S(=O)(=O)NCC(=O)OCC(=O)c2ccc(Cl)s2)cc1
  A: .; B: .; C: 7%; D: 4.5%

> O=c1oc2ccccc2cc1-c1cn2ccccc2n1
  A: 4; B: ?; C: -11%; D: ?

Entries shown so far containing a nitro group on carbon, in the order listed:
Codes – A = GLA inh pH 4.5; B = miR-21 FLuc; C = Rango dissoc inh; D = Rango complex inh
> O=C(NCc1ccc2c(c1)OCO2)c1cc([N+](=O)[O-])ccc1N1CCCCC1
  A: -9; B: 25%; C: 13%; D: 6.1%

> N/C(=N\OC(=O)c1ccccc1F)c1cccc([N+](=O)[O-])c1
  A: .; B: -55%; C: 14%; D: 1.6%

Later entries
Results follow in this order: GLA inh pH 4.5	miR-21 FLuc	Rango dissoc inh	Rango complex inh
COc1ccccc1OCC(=O)Sc1ccc(C)cc1
→ 4	12%	11%	-0.4%
CN(C)CCNC(=O)c1ccc(Cl)c2cc3ccccc3nc12
→ .	.	-25%	?
COc1ccc(S(=O)(=O)Nc2cc3c4c(c2)CC(=O)N4CCC3)cc1C
→ .	.	-3%	-1.1%
Cc1ccc(S(=O)(=O)NCCN=Cc2ccc(N(C)C)cc2)cc1
→ .	-4%	?	-2.0%
Cc1ccc(N(CC(=O)NC2CC2)S(=O)(=O)c2ccccc2)c(C)c1
→ .	2%	0%	-2.0%
Cn1cc(/C=C2/SC(=O)N(CC(=O)Nc3ccc4c(c3)OCO4)C2=O)c2ccccc21
→ -3	0%	?	?
CCCc1cc(-c2nc(-c3ccc(Br)cc3)cs2)ccn1
→ -7	-30%	8%	4.0%
CC(C)(C)NC(=O)NC(=O)Cn1ccsc1=N
→ 12	-2%	1%	-1.5%
Cc1cc(C)cc(NC(=S)NCc2ccc3[nH]c4c(c3c2)CCCC4)c1
→ -24	11%	-22%	?
COc1ccc(OC)c(C(O)CNC(=O)CN)c1 (stereo not given)
→ -2	.	6%	2.2%
COc1ccccc1NC(=O)C1CCCN1C(=O)Nc1ccc(F)cc1 (stereo not given)
→ .	-1%	?	-0.4%
O=C(CSc1nnc(CNC(=O)c2ccc(F)cc2)o1)NCc1ccccc1
→ .	0%	-10%	-1.9%
O=C1CC(c2ccccc2)=NN1c1ccc([N+](=O)[O-])cc1
→ -24	-21%	-8%	-2.4%
CN(c1cccc(NC(=O)CCSc2ccccc2)c1)S(C)(=O)=O
→ -5	-8%	-13%	0.7%
O=C1CCc2cc(S(=O)(=O)N3CCN(c4cccc(C(F)(F)F)c4)CC3)ccc2N1
→ -22	-10%	-7%	-2.2%
CCOC(=O)N1CCC(NC(=O)C2CCN(S(=O)(=O)c3cccs3)CC2)CC1
→ 1	-4%	-21%	1.2%
CC(C)(O)[C@H](O)Cc1cc2ccc(=O)oc2cc1O[C@@H]1O[C@H](CO)[C@@H](O)[C@H](O)[C@H]1O
→ .	.	5%	-3.2%
Cc1ccc2c(c1)sc(=NC(=O)c1cccs1)n2C
→ 8	29%	0%	0.4%
CCc1ccc(N2C(=O)CC(c3ccc(F)cc3)C3=C2COC3=O)cc1 (stereo not given)
→ -5	0%	.	.
COc1cc(-c2cc(C(=O)Nc3cc(S(=O)(=O)N4CCOCC4)ccc3C)c3ccccc3n2)cc(OC)c1OC
→ .	.	-11%	?
Cc1ccc(C(C)C)c(OCC(=O)NNC(=O)CC2OC(=O)c3ccccc32)c1 (stereo not given)
→ .	.	-14%	-2.4%
CN(CCc1ccccn1)C(=O)Nc1cc(Cl)cc(Cl)c1
→ -11	-5%	-4%	1.5%
Cc1ccc(N(CC(=O)NCc2ccco2)C(=O)CCC(=O)Nc2ccccn2)cc1C
→ -5	-1%	16%	-0.8%
CCN(CC)CCCN(C(=O)c1ccco1)c1nc(-c2ccc(C)cc2)cs1
→ -2	-6%	4%	-2.3%
Cc1ccccc1C(=O)Nn1cnc2ccccc2c1=O
→ 5	-36%	-18%	0.1%
Cc1occc1C(=O)N1CCCC(CCC(=O)NCc2ccc(F)c(F)c2)C1 (stereo not given)
→ 0	-6%	6%	-3.2%
CCCCN(CC(=O)Nc1cccc(S(=O)(=O)N2CCCC2)c1)Cc1nc2ccccc2c(=O)[nH]1
→ .	.	-14%	?
O=C1c2ccccc2C(=O)N1CC1=NCCc2ccccc21
→ -5	-31%	-17%	?
O=C(CCN1C(=O)c2ccccc2S1(=O)=O)Nc1ccccc1F
→ .	-6%	1%	-1.3%
O=C(CCNS(=O)(=O)c1ccc(Br)cc1)NCc1ccco1
→ .	.	-6%	1.3%

Single records (already shown). Order of screens: GLA inh pH 4.5, miR-21 FLuc, Rango dissoc inh, Rango complex inh
`COc1cc(-c2cc(C(=O)Nc3cc(S(=O)(=O)N4CCOCC4)ccc3C)c3ccccc3n2)cc(OC)c1OC` across the screens: ., ., -11%, ?
`CCCCN(CC(=O)Nc1cccc(S(=O)(=O)N2CCCC2)c1)Cc1nc2ccccc2c(=O)[nH]1` across the screens: ., ., -14%, ?

Structural class: those above with a CF3 group
Results follow in this order: GLA inh pH 4.5	miR-21 FLuc	Rango dissoc inh	Rango complex inh
C[C@H]1CN([C@@H](C)CO)C(=O)Cc2cc(NC(=O)CCC(F)(F)F)ccc2O[C@H]1CN(C)CC1CC1
→ .	.	8%	1.3%
O=C1CCc2cc(S(=O)(=O)N3CCN(c4cccc(C(F)(F)F)c4)CC3)ccc2N1
→ -22	-10%	-7%	-2.2%

This is a subset; rates above refer to the full screens.
